Screens as filed in PubChem.
HER2 expr 66K: Her2 kinase expression inhibition; P04626; SKBR-3 HER2 protein level, AlphaScreen, 18-24 h; hits give low values; HER2 level % of control, % at 10 µM; 65,000 compounds, 0.69% hits; AID 645;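 active = HER2 level under 5% of the carrier-only control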;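 also: 100% = DMSO carrier and 0% = 500 nM PU-H71 HSP90 inhibitor; lower value means stronger loss of Her2 protein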
MKP-1 inh: blocks human MKP-1 phosphatase activity | P28562 | recombinant MKP-1, OMFP hydrolysis fluorescence | inhibition, %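 (compounds tested at a single concentration somewhere between 10 and 100 µM)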 | 65,000 compounds, 0.15% hits;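 active = inhibition above about 50%, limit read from the data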;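 also: 0% = DMSO max control wells and 100% = wells with enzyme stopped by NaOH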
Hsp90 inh: displaces geldanamycin probe from tumor Hsp90 | 64,000 compounds, 0.35% hits | NCI-N417 lysate Hsp90, Cy3B-geldanamycin FP displacement | inhibition, % at 30 µM;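 active = inhibition above 50%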;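 also: 0% = tracer plus lysate wells and 100% = tracer alone without lysate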
Cdc25B inh: inhibitors of human Cdc25B phosphatase | inhibition, %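 (compounds tested at 10 µM final in the well)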 | P30305 | recombinant Cdc25B, OMFP fluorescence Ex485/Em525 | 65,000 compounds, 0.1% hits | AID 368; in the data active = inhibition above about 50%
FXIIa mix inh: factor XIIa (human) inhibition, mixture screen. inhibition, % at 5 µM. AID 684. 62,000 compounds, 0.2% hits. purified FXIIa, fluorogenic substrate, pooled mixtures; in the data active = inhibition above about 20%, passing the limit was not always enough;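 also: 0% = enzyme without compound and 100% = no enzyme blank; some results filed as inactive read as strong as hits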
The depositor's hits bear a star; nt = not tested or not shown; & = joins results of further samples. These rows are one share of the data (hit frequency here may not be typical).

SMILES	HER2 expr 66K	MKP-1 inh	Hsp90 inh	Cdc25B inh	FXIIa mix inh
CCC(=O)O[C@@H]1CC(=O)O[C@H](C)CC=CC=C[C@@H](O)[C@H](C)C[C@H](CC=O)[C@H](O[C@H]2O[C@H](C)[C@@H](O[C@H]3C[C@@](C)(O)[C@@H](OC(=O)CC)[C@H](C)O3)[C@H](N(C)C)[C@H]2O)[C@H]1OC	96	29	-2	-1	-2
COc1cc([C@@H]2c3cc4c(cc3[C@H](O)[C@H]3COC(=O)[C@H]23)OCO4)cc(OC)c1OC	59	-1	-1	-19	-2
CC1=NS(=O)(=O)c2cc(Cl)ccc2N1	85	-15	-1&0	-7	41
O=C(O)/C=C/c1ccc(O)c(O)c1	90	4	53*	-14	2
Fc1ccc(C(c2ccc(F)cc2)N2CCN(C/C=C/c3ccccc3)CC2)cc1	89	-24	1&-4	-18	2
Cc1ncc([N+](=O)[O-])n1CC(O)CCl (stereo not drawn)	93	-7	0	-10	0
CC(C)Oc1ccc2c(=O)c(-c3ccccc3)coc2c1	107	1	-3	-5	6
CN1CCN(CC(=O)N2c3ccccc3C(=O)Nc3cccnc32)CC1	80	-10	-6&2	-15	2
Cc1noc(NS(=O)(=O)c2ccc(N)cc2)c1C	101&101	-21&-13	0&-3	-2&7	3
CCCCOc1ccc(OCCCN2CCOCC2)cc1	104	-18	-1	-7	7
CN1CCN(C(=O)c2ccc(NS(=O)(=O)c3ccccc3)cc2)CC1	122	13	1	-1	9
COC(=O)CCC(=O)CN	85	-9	1	-16	2

Reprinted from the part before: 4 entries, followed by the next part.
SMILES	HER2 expr 66K	MKP-1 inh	Hsp90 inh	Cdc25B inh	FXIIa mix inh
Cc1noc(NS(=O)(=O)c2ccc(N)cc2)c1C	101&101	-21&-13	0&-3	-2&7	3
CCCCOc1ccc(OCCCN2CCOCC2)cc1	104	-18	-1	-7	7
CN1CCN(C(=O)c2ccc(NS(=O)(=O)c3ccccc3)cc2)CC1	122	13	1	-1	9
COC(=O)CCC(=O)CN	85	-9	1	-16	2
O=C(COc1ccc2ccccc2c1Br)Nc1ncn[nH]1	70	-12	-1	-11	12
CC(=O)O[C@H]1C(=O)[C@]2(C)[C@H]([C@H](OC(=O)c3ccccc3)[C@]3(O)C[C@H](OC(=O)[C@H](O)[C@@H](NC(=O)c4ccccc4)c4ccccc4)C(C)=C1C3(C)C)[C@]1(OC(C)=O)CO[C@@H]1C[C@@H]2O	117	24	0	-28	5
CC(=O)OC[C@H]1O[C@@H](n2ncc(=O)[nH]c2=O)[C@H](OC(C)=O)[C@@H]1OC(C)=O	102	-9	1	-15	2
CCCC(=O)Nc1ncnc2c1ncn2[C@@H]1O[C@@H]2COP(=O)(O)O[C@H]2[C@H]1OC(=O)CCC	97	-3	3	-10	-3
CCN(CC)S(=O)(=O)c1ccc(-c2nnc(SCC(=O)N3CCc4ccccc43)o2)cc1	80	6	-12	4	-2
Cc1ccc(Nc2cc(C)nn2-c2nc(C)cc(=O)[nH]2)cc1	17	33	-1	14	2
CN(C)CCC(c1ccc(Br)cc1)c1ccccn1 (stereo not drawn)	98	-12	1&-1	-20	0
c1ccc2c(c1)CCCC2C1=NCCN1 (stereo not drawn)	129&101	-27&-8	-4&-5&3	-2&-16	-23
CN(C)CC[C@@H](c1ccc(Br)cc1)c1ccccn1	nt	nt	4	nt	nt
O=C(CCCCCN1C(=O)CCC1=O)Nc1ncn[nH]1	106	-12	-10	-10	-12
CN1CCN(CCCN2c3ccccc3Sc3ccc(C(F)(F)F)cc32)CC1	60	2	1&3	15	17
CN/C(=C\[N+](=O)[O-])NCCSCc1ccc(CN(C)C)o1	nt	nt	0	nt	nt

Complete entries, looked up by structure. Values in the order: HER2 expr 66K, MKP-1 inh, Hsp90 inh, Cdc25B inh, FXIIa mix inh
CCCC(=O)Nc1ncnc2c1ncn2[C@@H]1O[C@@H]2COP(=O)(O)O[C@H]2[C@H]1OC(=O)CCC reads 97, -3, 3, -10, -3
CC(=O)OC[C@H]1O[C@@H](n2ncc(=O)[nH]c2=O)[C@H](OC(C)=O)[C@@H]1OC(C)=O reads 102, -9, 1, -15, 2
O=C(CCCCCN1C(=O)CCC1=O)Nc1ncn[nH]1 reads 106, -12, -10, -10, -12
c1ccc2c(c1)CCCC2C1=NCCN1 (stereo not drawn) reads 129&101, -27&-8, -4&-5&3, -2&-16, -23
CN/C(=C\[N+](=O)[O-])NCCSCc1ccc(CN(C)C)o1 reads nt, nt, 0, nt, nt

(cont.)
SMILES	HER2 expr 66K	MKP-1 inh	Hsp90 inh	Cdc25B inh	FXIIa mix inh
C=C(CC)C(=O)c1ccc(OCC(=O)O)c(Cl)c1Cl	94	1	-2	-21	4
CC[C@H]1CN2CCc3cc(OC)c(OC)cc3[C@@H]2C[C@@H]1C[C@H]1NCCc2cc(OC)c(OC)cc21	99	-25	-6&-3	-3	2
CCN(CC)CC(=O)Nc1c(C)cccc1C	103&100	-12&-2	1&-1&0	-23&-11	3&2
Oc1c(Cl)cc(Cl)cc1Sc1cc(Cl)cc(Cl)c1O	115	36	24	-19	3
